OX1R antag-1: blocks the human orexin 1 receptor; inhibition, % at 6.6 µM; 330,000 compounds, 1.8% hits; AID 485270; OX1R-expressing cells, FRET antagonist read-out; in the data active = inhibition mostly above about 38%, no sharp cut-off; inactive = mostly below about 40%;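 note: 0% = agonist challenge alone and 100% = reference antagonist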
Target sequence (O43613 whole entry, looked up): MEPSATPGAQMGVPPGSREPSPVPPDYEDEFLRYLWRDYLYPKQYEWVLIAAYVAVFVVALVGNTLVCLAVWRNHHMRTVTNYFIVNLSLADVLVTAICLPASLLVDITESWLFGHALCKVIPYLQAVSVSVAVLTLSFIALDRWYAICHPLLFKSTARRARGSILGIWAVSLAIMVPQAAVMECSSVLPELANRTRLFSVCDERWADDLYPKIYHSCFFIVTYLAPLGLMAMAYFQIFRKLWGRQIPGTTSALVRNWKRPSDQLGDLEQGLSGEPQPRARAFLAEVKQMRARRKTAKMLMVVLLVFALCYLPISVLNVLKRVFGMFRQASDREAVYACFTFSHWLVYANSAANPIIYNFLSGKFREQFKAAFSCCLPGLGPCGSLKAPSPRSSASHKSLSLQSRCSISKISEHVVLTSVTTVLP
OX1R antag-2: blocks the human orexin 1 receptor; O43613; CHO/OX1R cells, Fluo-8 calcium fluorescence, orexin A; inhibition, % at 5 µM; 330,000 compounds, 0.43% hits; AID 434989;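 active = inhibition above its plate's threshold, mean inhibition of all tested compounds on the plate plus 3 SD, cut at about 37% in these data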;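 note: 0% = orexin A challenge wells and 100% = SB-334867-A antagonist wells; not every result past the cut was called active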
Active calls of the source: *. Some of the compounds tested, and most or all hits are left out here.

OX1R antag-1	OX1R antag-2	structure
13	-10	Cn1c(=O)c2c(nc(OCc3cccnc3)n2Cc2c(F)cccc2Cl)n(C)c1=O
8	-31	Cc1ccnc(NC(=O)CCC(=O)N(CC(=O)NC(C)(C)C)Cc2ccc3c(c2)OCO3)c1
10	-13	Cc1ccc(-n2cnc3c(sc4nc(N5CCOCC5)c5c(c43)CCCC5)c2=O)cc1
37	-11	O=C(CN1CCN(c2ccc(Cl)cc2)CC1)c1ccc2c(c1)OCO2
8	-7	CC1Sc2ccc(C(=O)Nc3ccc(S(=O)(=O)N(C)C)cc3)cc2NC1=O (stereo not given)
29	-10	C/C(=N\Nc1ccc(S(=O)(=O)N2CCOCC2)cc1[N+](=O)[O-])C(C)C
19	-24	N#Cc1ccc(COC(=O)c2ccc3c(=O)[nH]c(CN4CCOCC4)nc3c2)cc1
32	-44	CCSc1nnc(NC(=O)CSc2c(Cl)cccc2Cl)s1
8	-6	Cn1c(COc2ccccc2)nc2ccccc21
-3	-21	O=C(CN1C(=O)NC2(CCCC2)C1=O)Nc1ccccc1N1CCCCC1
2	-31	Cc1cc(C)c(C(=O)CN2C(=O)NC3(CCC(C)CC3)C2=O)cc1C (stereo not given)
8	-3	O=C1CCCC(=O)C1=C1SCCCS1
13	-5	CCOc1ccc(/C(O)=C2/C(=O)C(=O)N(CCOCCO)C2c2ccccc2)cc1 (stereo not given)
17	-18	O=C(Nc1ncccc1O)c1cc2ccccc2o1
1	-24	Cc1ccc(-c2nnc(SCC(N)=O)nc2-c2ccc(C)cc2)cc1
14	-15	CCC(=O)Nc1nc2ccc(NC(C)=O)cc2s1
2	-22	COc1ccc(C(CC(=O)Nc2cc(OC)cc(OC)c2)n2cccc2)cc1 (stereo not given)
6	-21	Cc1nc2c(C(=O)N3CCOCC3)cnn2c(C)c1Cc1ccc(Cl)cc1
12	-2	COc1ccc(N2C(=O)C3CCCN3C2c2cccs2)cc1 (stereo not given)
2	-3	Cc1ccc(CC(=O)NCCC(=O)O)cc1

A different layout for 6 compounds above.
Order of values – OX1R antag-1, OX1R antag-2
O=C(CN1C(=O)NC2(CCCC2)C1=O)Nc1ccccc1N1CCCCC1
    -3, -21
Cc1ccc(-n2cnc3c(sc4nc(N5CCOCC5)c5c(c43)CCCC5)c2=O)cc1
    10, -13
CCOc1ccc(/C(O)=C2/C(=O)C(=O)N(CCOCCO)C2c2ccccc2)cc1 (stereo not given)
    13, -5
Cc1nc2c(C(=O)N3CCOCC3)cnn2c(C)c1Cc1ccc(Cl)cc1
    6, -21
COc1ccc(N2C(=O)C3CCCN3C2c2cccs2)cc1 (stereo not given)
    12, -2
CCC(=O)Nc1nc2ccc(NC(C)=O)cc2s1
    14, -15

Carrying on.
OX1R antag-1	OX1R antag-2	structure
-7	-9	CCc1ccc(NC(=S)N(CCOC)C2CCN(C(C)=O)CC2)cc1
5	-7	CCc1ccc(NC(=O)Cn2c(=O)oc3cc(S(=O)(=O)N4CCOCC4)ccc32)cc1
12	-7	COc1ccc([N+](=O)[O-])cc1/C=N/NC(=O)CNC(=O)c1cccc(F)c1
28	14	COc1ccc(-c2nn(-c3ccccc3)cc2/C=C\C(=O)Nc2ccc(C(=O)O)cc2)cc1
18	-18	Cc1ccc(C)c(C(=O)COC(=O)CNS(=O)(=O)c2ccccc2)c1
8	-10	Cc1c(C(=O)C(=O)NCc2ccco2)c2ccccc2n1C
6	-20	Cc1ccc(OCC(=O)N/N=C/c2cccnc2)cc1
4	-14	Clc1ccccc1N1CCN(c2ncnc3nc[nH]c23)CC1
45	-14	O=C(O)c1cc(-c2ccccc2)n(-c2ccccc2)n1
4	-29	COc1cc(/C=C/C(=O)N2CCc3ccccc3C2)cc(OC)c1OC
55	18	O=C(Nc1ccc(F)cc1)c1cc(S(=O)(=O)Nc2ccc(F)cc2)cs1
8	-15	Cc1cc(C)n(-c2ccc(S(N)(=O)=O)cc2[N+](=O)[O-])n1
15	-17	ON/C=N/C(=S)Nc1ncc(C(F)(F)F)cc1Cl
30	-21	CCCc1nnc(SCC(=O)N2C(C)CCCC2C)n1CC1CCCO1 (stereo not given)
27	-17	Nn1c(N2CCCCC2)nc2ccccc21
8	4	CC(C)(C)c1ccc(C(=O)N2CCCN(C(=O)c3ccc(C(C)(C)C)cc3)CC2)cc1
21	1	CN(C)C(N)=NCCC[C@H](N)C(=O)O
8	-26	O=C(OC(C(=O)NC1CCCC1)c1ccccc1F)c1ccco1 (stereo not given)
11	-24	Cc1cccc(C)c1OCC(=O)Nc1nnc(C2CCCO2)s1 (stereo not given)
20	-21	COc1cccc2cc(C(=O)CC3(O)C(=O)N(Cc4ccccc4)c4ccccc43)c(=O)oc12 (stereo not given)

Single records (already shown). Values in the order: OX1R antag-1 | OX1R antag-2
Listed for CN(C)C(N)=NCCC[C@H](N)C(=O)O = 21 | 1
Listed for COc1cc(/C=C/C(=O)N2CCc3ccccc3C2)cc(OC)c1OC = 4 | -29
Listed for Clc1ccccc1N1CCN(c2ncnc3nc[nH]c23)CC1 = 4 | -14
Listed for Cc1ccc(OCC(=O)N/N=C/c2cccnc2)cc1 = 6 | -20
Listed for ON/C=N/C(=S)Nc1ncc(C(F)(F)F)cc1Cl = 15 | -17

(continued)
OX1R antag-1	OX1R antag-2	structure
28	-14	COC(=O)c1sc(NC(=O)COc2ccccc2C)nc1C
6	-1	COCCNC(=O)c1cn(C)c2ccccc2c1=O
36	-23	O=C(NCC1CCCO1)c1onc(CSc2cccc(Cl)c2)c1C(=O)O (stereo not given)
20	-27	CC1=C(C(=O)OCc2ccccc2)C(c2ccc([N+](=O)[O-])cc2)NC(=O)N1CCCCCC(=O)O (stereo not given)
16	-22	Cc1ncsc1C(=O)N1N=C2/C(=C/c3ccccc3)CCCC2C1c1ccccc1 (stereo not given)
-4	-6	COc1ccc(S(=O)(=O)N(C)CC(=O)N2CCCCCC2)cc1
5	-72	CCOc1cc(C(=O)NCC(C)(C)CNC(=O)c2cc(OCC)c(OCC)c(OCC)c2)cc(OCC)c1OCC
8	-10	Cc1cnc(NC(=O)c2ccc3c(c2)C(=O)N(Cc2ccco2)C3=O)s1
5	-6	CC(=O)c1cc(NC(=O)c2ccc(Cl)cc2)c(=O)oc1/C=C/N(C)C
14	-17	CC(=C/C(=O)O)/C=C/c1cccs1
2	-6	CN1CCCN=C1/C=C/c1cccs1
29	-24	CCC(=O)N(CCC(Cc1ccccc1)c1ccc2c(c1)OCO2)Cc1ccccc1F (stereo not given)
19	-8	O=C(c1ccc2c(c1)OCO2)N1CCC2(CC1)Oc1ccc(F)cc1C(=O)C21CC(c2ccccc2)=NO1 (stereo not given)
19	-16	COc1ccc(CCNC(=O)C2CC(c3ccccc3C(F)(F)F)=NO2)cc1 (stereo not given)
3	-18	O=C(Nc1ccc2c(c1)OCCO2)c1cc(-c2ccccn2)nc2ccc(Br)cc12
10	-6	O=C(Cn1cncn1)NCCC(c1ccccc1)c1ccccc1
6	-8	Cc1nnc(SCC(=O)Nc2ccc(N3CCOCC3)cc2)o1
25	18	N#CCC(=O)c1sccc1-n1cccc1
8	-6	COc1ccc(C(=O)c2ccccc2O)c(O)c1
12	14	O=C(CN1C(=O)/C(=C\c2cccs2)SC1=S)Nc1cccc(C(=O)O)c1
7	-21	O=C(NC1CCCCCC1)C1c2ccccc2C(=O)N1C1CC1 (stereo not given)
6	-21	CSc1ccc(/C=N/n2c(Cc3ccc(Br)cc3)n[nH]c2=S)cc1
22	-3	O=C(C[n+]1ccccc1)Nc1ccccc1[N+](=O)[O-]
0	1	O=C(c1ccccc1F)N1CCN=C1c1ccccc1
7	-14	O=S(Cc1ccc(Cl)cc1)CC(O)(c1ccccc1)c1ccccc1 (stereo not given)
3	-5	O=C(Nc1nnc(COc2ccc(Cl)cc2)s1)C1CCCO1 (stereo not given)
3	-15	O=C(CN1CCCCCCC1)N/N=C/c1ccc(F)c(F)c1
9	4	Cc1ccc(C(=O)Nc2cc(=O)n(C)c(=O)n2C)cc1C
5	-14	O=C(c1cccs1)N1CCCC(N2CCN(c3ccc(F)cc3)CC2)C1 (stereo not given)
-11	-11	COC(=O)c1ccccc1N=C(SC)N(C)C
3	-19	Cc1ccc(CNC(=O)C2CCN(S(=O)(=O)c3ccc(Br)s3)CC2)cc1
18	-10	COC(=O)c1ccc(C23CC4(C2)[C@H](CN(C)[C@@H]4c2ccccc2)C3c2ccc(C(F)(F)F)cc2)cc1 (stereo not given in full)
-5	-10	O=C(C1CC(=O)N(c2ccc(Cl)cc2)C1)N1CCCCCC1 (stereo not given)
15	-18	CCOC(=O)Cn1cnc2c(nnn2-c2ccccc2)c1=O
13	3	Cn1cccc1-c1nc2ccccc2n1C
12	-31	N#Cc1c(C(F)(F)F)cc(-c2ccccc2)nc1SCC(=O)N1CCOCC1
23	-10	Brc1ccc(CSc2nnc(-c3cnccn3)n2Cc2ccco2)cc1
10	-7	COc1ccc(S(=O)(=O)N2c3ccccc3OCC2c2ccccc2)cc1 (stereo not given)
8	-11	CCOC(=O)c1[nH]c(C)c(C(=O)NC(C)CC)c1C (stereo not given)
7	-11	Cc1cccc(N2C(=O)C(O)=C(C(=O)c3cccs3)C2c2ccc(Cl)cc2)n1 (stereo not given)
12	2	CCOCCCNC(=O)c1ccc(OC)c(OC2CCN(C(C)C)CC2)c1
13	-24	CCNc1nc(NCC)n2c(SCC(=O)Nc3ccc(C)c(C)c3)nnc2n1
5	-23	CCOC(=O)C1=C(COC(=O)Cc2ccccc2F)NC(=O)NC1C (stereo not given)
17	-12	Cc1ccc(NC(=O)COc2ccc(-n3cnnn3)cc2)cc1C
16	31	O=C(COc1ccc(S(=O)(=O)N2CCOCC2)cc1)Nc1ccc(Cl)c(C(F)(F)F)c1
8	5	CCOc1ccccc1C(=O)N(Cc1ccc(C)o1)C1CCS(=O)(=O)C1 (stereo not given)
5	-20	Cn1c(=O)oc2cc(S(=O)(=O)N3CCC(C(=O)NCC4COc5ccccc5O4)CC3)ccc21 (stereo not given)
-2	-6	Cc1nn(-c2nnc(C)c(=O)[nH]2)c(C)c1SCC(=O)Nc1ccc(F)cc1
9	22	CCCN1CCc2c(sc(NC(=O)c3ccc(S(=O)(=O)N(C)c4ccccc4)cc3)c2C(=O)NC)C1
19	-16	Cc1ccsc1CN(C(=O)c1ccccc1)C1CCS(=O)(=O)C1 (stereo not given)
1	-34	CC(C)(C)NC(=O)CCN(/N=C/c1ccccc1)C1=NS(=O)(=O)c2ccccc21
8	-8	O=c1c(OC2OC(CO)C(O)C(O)C2O)c(-c2ccc(O)c(O)c2)oc2cc(O)cc(O)c12 (stereo not given)
32	-13	O=C(NCc1cccnc1)c1ccc2c(c1)C(=O)N(Cc1ccccc1)C2=O
21	-7	O=C(N/N=C/c1ccc(N2CCOCC2)cc1)c1ccc(O)cc1
19	0	O=C(NC(Cc1ccccc1)C(=O)O)/C(=C/c1ccco1)NC(=O)c1cccc(Br)c1 (stereo not given)
37	0	CN1C(=O)c2ccccc2C(C(=O)O)C1c1cccc([N+](=O)[O-])c1 (stereo not given)
34	2	O=[N+]([O-])c1nn(-c2ccc(Cl)cc2)n(O)c1=NCc1ccccc1Cl
20	-27	COC(=O)c1cccc(C23CC4(C2)[C@H](CN(Cc2ccc(C(F)(F)F)cc2)[C@@H]4c2ccccc2)C3c2ccc(Cl)nc2)c1 (stereo not given in full)
3	-14	CCOc1ccc(N(C)S(=O)(=O)c2csc(C(N)=O)c2)cc1
16	-13	C1=Cc2ccccc2Nc2ccccc21

(more compounds)
OX1R antag-1	OX1R antag-2	structure
23	-30	Cc1ccc(S(=O)(=O)Nc2ccccc2F)cc1C(=O)NNC(=O)c1ccccc1O
14	-19	CCn1ncc([N+](=O)[O-])c1C(=O)Nc1ccc(C(=O)N2CCCCC2)cc1
22	-21	Cc1ccsc1C1Nc2ccc3ncccc3c2C2=C1C(=O)CC(C)(C)C2 (stereo not given)
10	-1	O=C(/C=C\c1ccco1)c1ccc(NC(=O)c2ccco2)cc1
5	-17	COc1ccc(OC)c(NC(=O)CC2SC(=N)N(c3ccccc3)C2=O)c1 (stereo not given)
44	0	COc1ccc(/C=N/NC(=O)c2cccnc2)cc1CSc1nc2ccccc2s1
6	-14	Cc1ccc(NC(=S)c2nc3ccccc3[nH]2)c(C)c1
16	-18	CN1CCN(c2cc(N3CCc4ccccc4C3)c(F)cc2[N+](=O)[O-])CC1
17	-9	CC(O)CNCCCOc1cccc(C(F)(F)F)c1 (stereo not given)
53	-5	COc1ccc(C(=O)c2c3ccc([N+](=O)[O-])cc3[n+]([O-])n2CCCN)cc1
8	-33	CCc1ccc(NC(=O)CS(=O)CC(=O)NC(C)CCc2ccco2)cc1 (stereo not given)
-1	-5	O=C(NCc1ccc(F)cc1)c1noc2c1CCCC2
24	9	Cc1ccc(NS(=O)(=O)c2ccc(NC(=O)C3CC3)cc2)c(C)c1
25	-25	CCOC(=O)[C@@H]1[C@H]2COc3cc(OC)ccc3[C@@H]2N2C(=O)N(c3ccc(C)cc3)C(=O)[C@@]12C
14	-17	O=C(Nc1nncs1)c1cccc(S(=O)(=O)N2CCc3ccccc32)c1
7	-5	O=C1COc2ccc(C(=O)COC(=O)CNC(=O)C3CCCCC3)cc2N1
8	-11	COc1ccccc1CNC(=O)c1ccc(S(=O)(=O)N2CCCC2)cc1
7	8	CCOC(=O)c1c(C)[nH]c(C)c1C(=O)CSc1nc(N)cc(=O)[nH]1
9	-10	Cc1ccc(C2=NN3C(=O)c4ccccc4C3C2)cc1 (stereo not given)
3	-41	Cn1cccc1/C=C1\CCc2ccccc2C1=O
26	2	O=C1C(=O)N(CCN2CCOCC2)C(c2ccccc2F)/C1=C(\O)c1ccc(S(=O)(=O)N2CCOCC2)cc1 (stereo not given)
